miR-21 FLuc = raises the signal of a miR-21 reporter; 340,000 tested, under 10 active; Potency, µM (highest dose often 38.3 µM), for inactives: at the highest dose reporter change, positive = more light; HeLa miR-21 FLuc reporter, luciferase, 48 h; AID 2288; active = well fitted rising curve with a large enough effect; inconclusive = small, poorly fitted or top-dose-only effect; inactive = no such curve, though single readings can be large or run the other way;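 further: % of control where 0% means no effect; miR-21 action dims this reporter so a rising signal means less miR-21 action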
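Using DMEM plus 10% FBS, HeLa miR-21-FLuc cells are incubated with test compounds (final up to about 40uM) for 48 hours; firefly luciferase signal is then imaged following reagent-mediated lysis.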
* = called active by the depositor; ? = inconclusive. This is a subset; count on the stated rates, not on these rows.

SMILES	miR-21 FLuc
COc1ccc(-c2cc(C(F)(F)F)n3nc(C(=O)Nc4cccc(C(F)(F)F)c4)c(Br)c3n2)cc1	-0.7%
COc1cc(-c2nc3nc(C)cc(C)n3c2Nc2ccc(Cl)cc2)ccc1O	13.1%
CCOC(=O)C1CCN(c2c(C(=O)c3ccc(OCC)cc3)cnc3ccc(OC)cc23)CC1	5.4%
Cc1cccc(-n2c(SCC(=O)Nc3ccccc3C)nc3c(oc4ccccc43)c2=O)c1	13.0%
CCc1ccc(C(=O)c2cn(CC(=O)Nc3ccc(F)cc3)c3cc4c(cc3c2=O)OCO4)cc1	-0.9%
CCCc1cc(=O)n2[nH]c(-c3ccc(C)cc3)nc2n1	-30.6%
Cc1ccc(-n2c(=O)c3cccnc3n2CC(=O)NCc2ccc(F)cc2)cc1C	-1.2%
CCCc1cc(=O)n2c(C(=O)Nc3ccc(OCC)cc3)c(C(=O)Nc3ccc(C)cc3)sc2n1	-0.6%
COC(=O)c1ccc(NC(=O)N2CCc3c([nH]c4ccccc34)C2c2ccc(C)cc2)cc1 (stereo not drawn)	0.6%
Cc1ccc2cc(CN(C(=O)c3cccc(Cl)c3)c3ccccc3)c(=O)[nH]c2c1	-2.0%
CC(=O)N1CCc2cc(Br)cc(S(=O)(=O)N3CCC(C(=O)N(C)c4cc(C)ccc4C)CC3)c21	-3.6%
CCOC(=O)c1cc(S(=O)(=O)NCc2ccc(OC)cc2)[nH]n1	-2.9%
Cc1ccc(CCNC(=O)C2CCCN(Cc3nc(-c4cccc(Cl)c4)oc3C)C2)cc1 (stereo not drawn)	5.0%
COc1cc(C2C(C(=O)Nc3ccccc3C)=C(C)Nc3nc(SCc4cc(C)ccc4C)nn32)ccc1O (stereo not drawn)	7.0%
CCCCOC(=O)c1ccc(NC(=O)/C(C#N)=C/c2ccc(C)o2)cc1	-1.9%
CCn1c(CN2CCN(C)CC2)nc2cc(NC(=O)c3cc(OC)c(OC)c(OC)c3)ccc21	-1.4%
CCOc1cc(C(=O)NCCc2csc(-c3ccc(C)cc3)n2)cc(OCC)c1OCC	13.4%
O=C(CSCc1nc2cccnc2n1C1CCCCC1)NCc1cccc(Cl)c1	-7.8%
O=C(c1ccc(CSc2nc3ccncc3n2Cc2ccccc2F)cc1)N1CCCCCC1	-12.4%
COc1ccc(NC(=O)CCS(=O)(=O)c2cc3c4c(c2)CCN4C(=O)CC3)c(OC)c1	2.4%

Brought forward from above: four compounds, followed by the next part.
SMILES	miR-21 FLuc
CCOc1cc(C(=O)NCCc2csc(-c3ccc(C)cc3)n2)cc(OCC)c1OCC	13.4%
O=C(CSCc1nc2cccnc2n1C1CCCCC1)NCc1cccc(Cl)c1	-7.8%
O=C(c1ccc(CSc2nc3ccncc3n2Cc2ccccc2F)cc1)N1CCCCCC1	-12.4%
COc1ccc(NC(=O)CCS(=O)(=O)c2cc3c4c(c2)CCN4C(=O)CC3)c(OC)c1	2.4%
CC(C(=O)NCc1cccc(Br)c1)n1ncn2cccc2c1=O (stereo not drawn)	27.2%
CCOC(=O)N1CCc2c(sc(NCc3ccc(OC)c(Br)c3)c2C(=O)Nc2cc(OC)ccc2OC)C1	-3.7%
CC(=O)c1ccc(NC(=O)Nc2nnc(N3CCCC(C)C3)s2)cc1 (stereo not drawn)	-16.9%
CCOC(=O)c1c(NC(=O)/C=C/c2ccccc2)sc2c1CCCC2	0.0%
Cc1ccc(CNc2ccc(-c3nc(-c4cccnc4)no3)cc2[N+](=O)[O-])cc1	?
CCOc1ccc(CCNC(=O)Cn2nnc(-c3ccccc3Cl)n2)cc1OCC	1.0%
CC(C)c1cc(-c2nc(-c3ccccc3)no2)n[nH]1	-1.0%
Cc1ccc(Cl)cc1NC(=O)Nc1nnc(N(C)Cc2ccccc2)s1	4.7%
O=C(Nc1ccc(N2CCC(N3CCCCC3)CC2)c(C(=O)O)c1)c1ccccc1	-4.1%
CCN1CCc2c(sc(-n3cccc3)c2C(C)NC(=O)Nc2cc(Cl)c(OC)cc2OC)C1 (stereo not drawn)	-8.1%
COc1cccc(C(=O)NC2=NC(c3ccccc3F)CC(=O)N2)c1 (stereo not drawn)	2.4%
COc1ccc(-c2onc(C)c2C)cc1S(=O)(=O)Nc1cc(Cl)ccc1C	27.4%
O=C(C1CCCN(S(=O)(=O)c2cccc3nsnc23)C1)N1CCN(c2cccc(Cl)c2)CC1 (stereo not drawn)	19.1%
CCOC(=O)C1CCCN(c2ncnc3c2cnn3-c2ccc(C)c(Cl)c2)C1 (stereo not drawn)	-37.0%
COc1ccc(OCc2ccc(-c3nc(C#N)c(NCc4cccnc4)o3)o2)cc1	19.8%
Cc1ccc(NC(=O)CN2C(=O)COc3ccc(S(=O)(=O)NC4CCCC4)cc32)cc1Cl	6.4%
C#CC(C)(CC)NC(=O)c1cc2c(n(-c3ccc(Cl)cc3)c1=O)CC(C)(C)CC2=O (stereo not drawn)	3.3%
COc1ccc(C2=NN(C(=O)c3ccccc3)C(c3ccc(OC)c(OC)c3)C2)c(OC(C)=O)c1 (stereo not drawn)	-2.6%
CCN(CC)C(=O)CSc1nnc2[nH]c(=O)cc(C)n12	-0.2%
COc1ccc(N2CC(NC(=O)COc3ccccc3F)CC2=O)cc1OC (stereo not drawn)	-2.0%
CCOc1ccccc1NC(=O)Cn1c(=O)n(Cc2ccco2)c(=O)c2cccnc21	-6.1%
COc1ccc(NC(=O)c2noc3c2CCCC3)cc1Cl	-65.9%
Cc1cccc(NC(=O)CSc2nc3c(c(=O)[nH]2)CN(Cc2ccc4c(c2)OCO4)CC3)c1C	0.0%
O=C1c2oc3ccc(F)cc3c(=O)c2C(c2cccc([N+](=O)[O-])c2)N1CCCN1CCOCC1 (stereo not drawn)	0.2%
CCOC(=O)c1c(NC(=O)c2cc(-c3ccc(OC)c(OC)c3)on2)sc(C)c1C	2.1%
COc1ccc2c(c1)c1c(c(=O)n(-c3cccc(C)c3)c(=O)n1CC(=O)NCCC1=CCCCC1)n2C	-0.6%
Fc1cccc(-c2nnn3c2nc(NCc2ccc4c(c2)OCO4)c2ccccc23)c1	-12.4%
Cc1cccc(N2CCN(C(=O)c3ccc4c(c3)N(Cc3cccc(Cl)c3)C(=O)c3ccccc3S4=O)CC2C)c1 (stereo not drawn)	20.1%
O=C(Nc1ccc(F)cc1)c1ncn(-c2ccccc2)n1	-38.4%
COc1ccc(-c2nc3scc(CCNS(=O)(=O)c4cccc(C(C)=O)c4)n3n2)cc1	8.5%
Cc1ccc(NC(=O)c2ccc3c(=O)n4nc(Nc5ccccc5C)sc4nc3c2)cc1C	-3.6%
Cc1ccc(C(=O)Nc2c(-c3ccccc3)nc3ccccn23)cc1	-2.2%
CCc1ccc(OCC(=O)Nc2ccc(-c3nc4ncccc4o3)cc2)cc1	-18.9%
CC(C)CC(=O)Nc1c(C(=O)N2CCN(c3ccccc3F)CC2)oc2ccccc12	28.2%
CCOc1ccc(-c2nc(CSCC(=O)NCc3ccc(C)cc3)c(C)o2)cc1	25.7%
CCN1CCN(CCCNC(=O)Cn2c(-c3cccs3)cc3ccccc32)CC1	-0.5%
Cc1ccc(Cl)cc1NC(=O)CSc1nc2ccccc2c2nc(-c3ccccc3)nn12	-2.3%
Cc1ccc(CNC(=O)Cn2ncc3c([nH]c4ccc(C)cc43)c2=O)cc1	0.6%
CCOC(=O)c1c(C)oc2ncnc(N3CCN(c4ccccc4F)CC3)c12	13.0%
CCOc1ccc(NC(=O)Cn2c(=O)n(CCCC(=O)NCCc3ccc(Cl)cc3)c(=O)c3ccccc32)cc1	0.2%
CCOC(=O)C(C)Sc1nnc2ccc3ccccc3n12 (stereo not drawn)	-36.5%
CCOC(=O)c1ccccc1Nc1nc2ccc(C)cc2n2nnnc12	5.0%
CCOc1ccc(NC(=O)CSc2oc(-c3ccc(C)cc3)nc2S(=O)(=O)c2ccc(C)cc2)cc1	?
COc1cc(S(=O)(=O)n2ccnc2C(C)C)ccc1Br	-3.1%
COC(=O)c1ccc(NC(=O)CC2C(=O)N(c3cccc(C)c3)C(=O)N2C2CCCC2)cc1 (stereo not drawn)	2.6%
O=C(Nc1cccc(Cl)c1)Nc1ccccc1OCc1cc(=O)n2ccccc2n1	-1.7%
CCC(C)NC(=O)c1ccc2c(c1)sc1nc(-c3ccc(OC)cc3)cn12 (stereo not drawn)	0.2%
C/C(=N\Nc1nc2ccccc2[nH]1)c1ccccn1	-11.6%
Cc1ccc(C)c(NC(=O)Cn2c(SCC(=O)NCc3ccccc3)nc3ccccc32)c1	2.9%
CCC1Oc2ccccc2N(CC(=O)NCc2ccccc2)C1=O (stereo not drawn)	-28.3%
Continuation.
SMILES	miR-21 FLuc
CCOc1ccc(-c2cc3c(=O)n(CC(=O)NCc4ccc(C)cc4)ccn3n2)cc1	-18.1%
CCOC(=O)c1ccc(-c2ccc(/C=C(\C#N)C(=O)Nc3c(C)cccc3Cl)o2)cc1	-37.6%
O=C(NC1CC(=O)N(c2ccc(F)cc2)C1)c1ccc(S(=O)(=O)N2CCOCC2)cc1 (stereo not drawn)	-1.1%
Cc1ccc(CNC(=O)CN(C)S(=O)(=O)c2ccc(Br)s2)cc1	-0.7%
COc1ccc(CNC(=O)c2ccc3c(c2)nc2n3CCCCC2)cc1	-65.7%
CCOc1cc(CNCCSc2nnnn2-c2ccccc2)ccc1OC	-0.8%
COc1ccc(NC(=O)CSc2nc(-c3cccs3)cc(C(F)(F)F)n2)cc1OC	15.1%
CCOc1ccc2c(c1)c(=O)c(C(=O)c1ccc3c(c1)OCO3)cn2Cc1ccc(F)cc1	0.3%
Cc1ccc(NC(=O)c2ccc(CN3CC(=O)N4CCCCC4C3=O)cc2)cc1 (stereo not drawn)	-16.1%
Cc1ccc(NS(=O)(=O)c2ccc3c(c2)[C@H]2C=CC[C@H]2[C@@H](c2ccc(F)cc2)N3)cc1C	3.3%
Cc1cccc(Cn2c(SCc3ccc(C(=O)N4CCC(C)CC4)cc3)nc3ccncc32)c1	25.3%
CCc1ccc(C2=C(C)C(N3CCC(C(=O)Nc4cccc(OC)c4)CC3)=NS2(=O)=O)cc1	11.3%
Cc1ccc(C)c(CNC(=O)C2CCCCN2S(=O)(=O)c2ccc(F)cc2)c1 (stereo not drawn)	23.9%
Cc1ccc(-c2cc3nccc(-c4cc([N+](=O)[O-])ccc4O)n3n2)cc1	?
CCc1ccc(OCC(=O)Nc2c(C(=O)c3ccccc3)oc3ccccc23)cc1	-2.3%
CCSc1nnc2c(n1)OC(CC)N(C(C)=O)c1ccccc1-2 (stereo not drawn)	-5.1%
Cc1cc(C)cc(C(=O)Nc2ccc(-c3cn4cccnc4n3)cc2)c1	0.6%
COc1cc(OC)cc(C(=O)Nc2cc3nn(-c4ccccc4)nc3cc2Cl)c1	4.6%
Cc1cc(C)cc(NC(=O)C2CCCN(C(=O)c3cnn(-c4ccccc4)c3-n3cccc3)C2)c1 (stereo not drawn)	?
Cc1cc(NC(=O)CSc2nc3c([nH]c4ccccc43)c(=O)n2-c2ccccc2)no1	-2.8%
C=Cc1ccc(Cn2c(C(=O)O)c(CNCCc3ccccc3)c3ccc(C)cc32)cc1	?
COc1ccc2c(c1)sc1ncc(C(=O)NCc3cccc(C)c3)c(=O)n12	1.7%
COc1ccc(CCN2C(=O)N(c3ccc(F)cc3)C(=O)C2CC(=O)Nc2ccc(OC)cc2)cc1 (stereo not drawn)	10.2%
CCCCN(C)C(=O)c1ccc2c(c1)N(Cc1cccc(Cl)c1)C(=O)c1ccccc1S2=O (stereo not drawn)	13.0%
CCN1CCN(Cc2c(O)ccc3oc(C)c(C(=O)Nc4cccc(C(F)(F)F)c4)c23)CC1	22.9%
COc1ccccc1Cc1nc2ccccc2nc1SCC(=O)Nc1ccc2c(c1)OCO2	1.4%
CCN1C(=O)C(Cc2nc3ccccc3c(=O)n2-c2ccccc2)c2cc(Br)ccc21 (stereo not drawn)	9.5%
CC(=O)N1CCCc2cc(S(=O)(=O)N(C)CC(=O)Nc3ccc(Cl)cc3C)ccc21	19.2%
COc1ccc(CC(=O)Nc2ccc(-c3nc4ccccc4s3)cc2Cl)cc1	-6.0%
CCCSc1ncc(Cl)c(C(=O)Nc2ccc(S(=O)(=O)N3CCC(C)CC3)cc2)n1	27.4%
Cc1ccc2nc(-c3c[nH]c4ccccc34)c(Nc3ccccc3)n2c1	-30.5%
CCOc1ccc(-c2nonc2NC(=O)COc2c(C)cc(C)cc2C)cc1OCC	-9.6%
Cc1cc(NS(=O)(=O)c2ccc(NC(=O)COc3ccc(Cl)cc3)cc2)nc(C)n1	-0.1%
COc1ccccc1Cc1nc2ccccc2nc1SCC(=O)N1CCCc2ccccc21	-7.9%
CCOC(=O)c1ccc(N2C(=O)c3n[nH]c(-c4cccs4)c3C2c2cccc(F)c2)cc1 (stereo not drawn)	5.1%
COc1ccc(N2CCN(C(=O)c3ccc4c(c3)N(Cc3ccc(F)cc3)C(=O)c3ccccc3S4=O)CC2)cc1 (stereo not drawn)	17.7%
O=C(CCCN1C(=O)C(c2ccccc2)Oc2cccnc21)Nc1ccc(Br)cc1F (stereo not drawn)	-9.0%
CCCCOc1ccc(S(=O)(=O)Nc2cccc(-c3ccc(N4CCOCC4)nn3)c2)cc1	-24.1%
COc1ccc(C(=O)Nc2nc3ccc(S(=O)(=O)N4CCCC4)cc3s2)cc1	-0.8%

Four entries from above, with each value named:
COc1ccc(N2CCN(C(=O)c3ccc4c(c3)N(Cc3ccc(F)cc3)C(=O)c3ccccc3S4=O)CC2)cc1 (stereo not drawn)
  miR-21 FLuc = 17.7%

O=C(CCCN1C(=O)C(c2ccccc2)Oc2cccnc21)Nc1ccc(Br)cc1F (stereo not drawn)
  miR-21 FLuc = -9.0%

CCCCOc1ccc(S(=O)(=O)Nc2cccc(-c3ccc(N4CCOCC4)nn3)c2)cc1
  miR-21 FLuc = -24.1%

COc1ccc(C(=O)Nc2nc3ccc(S(=O)(=O)N4CCCC4)cc3s2)cc1
  miR-21 FLuc = -0.8%

Screening results from PubChem BioAssay.
